YopH inh – blocks Yersinia enterocolitica YopH tyrosine phosphatase; fluorescence Ex485/Em525; inhibition, %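 (about 10 µM by stock and volumes)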; hit rate 0.16% among 140,000;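 active = inhibition of 50% or more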;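 also: controls were vehicle for no effect and minimum signal wells for full effect; inactives centre near -20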
Mtb H37Rv – M. tuberculosis H37Rv growth inhibitors, H37Rv strain (AID 1626); M. tuberculosis H37Rv growth inhibition; higher % means a stronger effect; inhibition, % at 10 µM, or IC50 in µM where a hit was titrated; hit rate 0.95% among 220,000;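 active = confirmed in a dose series; inconclusive = inhibition above 80% but not taken into the dose series; inactive = below 80% or under 30% at every dose of the series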;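 also: bacteria incubated seven days before Alamar blue readout; 0% = bacteria only wells and 100% = bacteria with antibiotic wells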
RecA intein inh – blocks M. tuberculosis RecA intein splicing; inhibition, %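 (about 9 µM by stock and volumes)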; AID 2221; hit rate 0.75% among 290,000; cell-free RecA intein splicing, fluorescence; in the data active = inhibition above about 30%; inconclusive = no clear call, values can overlap the other calls;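 also: 0% = vehicle wells and 100% = reference inhibitor control wells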
Target sequence (P9WHJ3 whole entry, looked up): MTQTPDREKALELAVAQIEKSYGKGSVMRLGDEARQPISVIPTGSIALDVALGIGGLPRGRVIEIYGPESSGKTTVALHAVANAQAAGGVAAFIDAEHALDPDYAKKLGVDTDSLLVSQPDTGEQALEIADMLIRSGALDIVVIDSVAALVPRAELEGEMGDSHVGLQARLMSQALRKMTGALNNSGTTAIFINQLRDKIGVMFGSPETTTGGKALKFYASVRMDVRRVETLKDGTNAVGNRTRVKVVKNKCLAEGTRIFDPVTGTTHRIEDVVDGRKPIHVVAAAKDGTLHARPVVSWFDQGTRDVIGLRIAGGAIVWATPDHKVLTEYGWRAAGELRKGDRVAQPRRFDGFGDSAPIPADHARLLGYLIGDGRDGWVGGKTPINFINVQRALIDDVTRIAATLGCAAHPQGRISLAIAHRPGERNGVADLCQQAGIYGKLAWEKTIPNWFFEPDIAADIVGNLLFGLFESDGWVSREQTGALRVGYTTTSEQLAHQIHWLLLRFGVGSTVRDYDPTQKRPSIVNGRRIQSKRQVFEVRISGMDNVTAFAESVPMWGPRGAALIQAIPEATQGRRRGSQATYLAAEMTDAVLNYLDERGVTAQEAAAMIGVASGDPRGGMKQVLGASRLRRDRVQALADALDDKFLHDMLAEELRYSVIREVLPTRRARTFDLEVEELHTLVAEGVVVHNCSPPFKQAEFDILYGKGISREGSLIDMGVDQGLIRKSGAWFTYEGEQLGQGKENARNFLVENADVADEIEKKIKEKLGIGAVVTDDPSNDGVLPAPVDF
Arbovirus inh – blocks arbovirus infection | arbovirus infection cell-based antiviral screen | hit rate 0.37% among 200,000 | AID 1251 | inhibition, % at 10 µM;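 active = inhibition from about 30%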;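 also: bluetongue infection of BSR cells; cell survival read as ATP light after 72 h; 0% = infected wells without compound and 100% = uninfected wells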
Mtb bLac sens – beta-lactam sensitization of Mtb H37Rv; M. tuberculosis H37Rv growth with meropenem, percent inhibition; hits of this screen are not shown here; inhibition, % at 25 µM; hit rate 0.27% among 330,000; AID 434955;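 active = about 74% or more and at least 40 points above the plate without the antibiotic, then above 30% in a dose series; inconclusive = first-round hits that could not be retested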;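 also: growth measured after seven days incubation then overnight dye step; 0% = bacteria only wells and 100% = bacteria with antibiotic; twin plates without the antibiotic show which effects depend on it; some results filed as inactive read as strong as hits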
Arbovirus inh repeat – further read-out of Arbovirus inh, marked with its call; inhibition, %; measured here: 10K subset replicate screen; many hits read low in the repeat;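 first of two repeat runs on a subset; 0% = infected and 100% = uninfected wells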
* = called active by the depositor; ? = inconclusive; nt = no result given.

SMILES	YopH inh	Mtb H37Rv	RecA intein inh	Arbovirus inh	Mtb bLac sens	others
Cc1cccc(C)c1NC(=O)CN1C(=O)C(C)Oc2ccccc21 (stereo not drawn)	nt	nt	6.9	nt	-1
CC1=C(C(=O)N2CCCCCC2)C2(CCC(C)CC2)OC1=O (stereo not drawn)	-59	-12%	-1.2	5	11
CCOC(=O)c1c(-c2ccccc2)oc2ccc(OCC(=O)NNC(=O)CCC(=O)O)cc12	nt	nt	0.6	nt	-2
Cc1ccccc1N1C(=O)C2ON(c3ccccc3)C(c3ccncc3)C2C1=O (stereo not drawn)	-45	-12%	5.6	0	-9
Cc1cc(C(=O)O)ccc1N=Cc1c(O)ccc2ccccc12	nt	nt	-2.4	nt	4
COc1ccc(NC(=O)CS(=O)c2cccc(C(F)(F)F)c2)cc1 (stereo not drawn)	nt	nt	0.3	nt	-9
CC1(C)CC(NC(=O)CCC2CCCC2)CC(C)(C)N1	-29	-10%	3.1	-2	-1
Nc1nnc(CCS(=O)(=O)c2cc(Cl)ccc2Cl)s1	-32	1%	-2.1	8	-14
CCCCOc1cccc(OCCCC)c1C(=O)Nc1cc(C)on1	-14	9%	1.9	2	85
COc1ccc(C(=O)OC(C)CN2CCOCC2)cc1 (stereo not drawn)	nt	nt	0.4	nt	3
O=C1O/C(=C/c2ccccc2)c2ccccc21	-32	2%	7.5	1	-5
Cc1c(CCO)c(=O)[nH]n1S(=O)(=O)c1cccc(C(F)(F)F)c1	nt	nt	-0.4	nt	-9
CCOC(=O)c1[nH]c2c(c1-c1ccccc1)C(=O)CC(c1ccccc1)C2 (stereo not drawn)	-12	nt	0.9	-9	9
COc1cc(OC)c(C(=O)N2CCN(c3ccccn3)CC2)cc1OC	nt	nt	-3.6	nt	-9
CCC(C)(C)NC(=O)CCn1c(-c2ccccc2)cc(C(C)=O)c1C	nt	-3%	0.2	7	7
O=C(CC(n1cncn1)C(Cl)(Cl)Cl)c1ccc([N+](=O)[O-])cc1 (stereo not drawn)	nt	nt	1.2	nt	97
Cc1cccc(NC(=O)NNC(=O)c2ccc3ccccc3c2)c1	nt	nt	-0.1	nt	-6
COC(=O)c1ccc2c(c1)C(=O)/C(=C/c1ccc(O)cc1)O2	5	-5%	-1.2	-3	0
Cc1cc(SCC(=O)Nc2cccc(S(=O)(=O)NC3=NCCCCC3)c2)c(C)cc1Br	-20	9%	6.1	-28	1
CCN(CC)S(=O)(=O)c1ccc2[nH]cc(C(=O)NCCCN3CCCCC3)c(=O)c2c1	-27	-1%	0.5	2	-4

Sorted by molecular weight (low to high): some entries from above
SMILES	YopH inh	Mtb H37Rv	RecA intein inh	Arbovirus inh	Mtb bLac sens	others
O=C1O/C(=C/c2ccccc2)c2ccccc21	-32	2%	7.5	1	-5
COc1ccc(C(=O)OC(C)CN2CCOCC2)cc1 (stereo not drawn)	nt	nt	0.4	nt	3
CC1(C)CC(NC(=O)CCC2CCCC2)CC(C)(C)N1	-29	-10%	3.1	-2	-1
COC(=O)c1ccc2c(c1)C(=O)/C(=C/c1ccc(O)cc1)O2	5	-5%	-1.2	-3	0
CC1=C(C(=O)N2CCCCCC2)C2(CCC(C)CC2)OC1=O (stereo not drawn)	-59	-12%	-1.2	5	11
Cc1cccc(NC(=O)NNC(=O)c2ccc3ccccc3c2)c1	nt	nt	-0.1	nt	-6
Cc1cccc(C)c1NC(=O)CN1C(=O)C(C)Oc2ccccc21 (stereo not drawn)	nt	nt	6.9	nt	-1
Nc1nnc(CCS(=O)(=O)c2cc(Cl)ccc2Cl)s1	-32	1%	-2.1	8	-14
Cc1c(CCO)c(=O)[nH]n1S(=O)(=O)c1cccc(C(F)(F)F)c1	nt	nt	-0.4	nt	-9
COc1cc(OC)c(C(=O)N2CCN(c3ccccn3)CC2)cc1OC	nt	nt	-3.6	nt	-9
CCOC(=O)c1[nH]c2c(c1-c1ccccc1)C(=O)CC(c1ccccc1)C2 (stereo not drawn)	-12	nt	0.9	-9	9
Cc1ccccc1N1C(=O)C2ON(c3ccccc3)C(c3ccncc3)C2C1=O (stereo not drawn)	-45	-12%	5.6	0	-9
CCOC(=O)c1c(-c2ccccc2)oc2ccc(OCC(=O)NNC(=O)CCC(=O)O)cc12	nt	nt	0.6	nt	-2

The results go on:
SMILES	YopH inh	Mtb H37Rv	RecA intein inh	Arbovirus inh	Mtb bLac sens	others
COc1cccc(C(=O)N(c2ccccc2)C2C=CS(=O)(=O)C2)c1 (stereo not drawn)	nt	-16%	2.0	19	4
CCCCCCC1NC(C(=O)O)CS1 (stereo not drawn)	-12	-9%	-2.2	2	-7
CC(C)(C)C(=O)COC(=O)c1c2c(nc3ccccc13)CCC2	nt	2%	-1.5	3	0
Cc1ccc(-c2nnc(N3CCOCC3)c3ccccc23)cc1S(=O)(=O)NCc1cccnc1	nt	2%	-1.1	3	4
O=C(CCc1nc(-c2ccc(Cl)cc2)no1)NCC1CCCO1 (stereo not drawn)	nt	0%	0.0	4	0
O=C(CN1CCN(Cc2ccccc2F)C1=O)NC1CCCC1	nt	5%	-2.3	3	-4
OCC1(Cc2cccc(F)c2)CCN(Cc2cccc3nccnc23)CC1	nt	5%	2.5	3	-9
Cc1ccc(OCC(=O)NC2CCCc3ccccc32)c(C)c1 (stereo not drawn)	-15	13%	-2.0	-7	10
COc1ccc(N(C(=O)c2cnccn2)C(C(=O)NC2CCCCC2)c2cc(OC)c(OC)c(OC)c2)cc1 (stereo not drawn)	nt	nt	1.0	nt	-3
Cc1[nH]nc2c1C1(CCN(C(=O)OCc3ccccc3)CC1)C(C#N)=C(N)O2	-26	-3%	80*	-7	1
CCn1c(=O)c2cc(C(=O)N3CCN(C(=O)c4ccco4)CC3)sc2c2ccccc21	nt	5%	nt	-7	nt	Arbovirus inh repeat=-8
CC(C)CC(=O)N1CCN(Cc2cccc(Cl)c2)CC1	nt	nt	-0.6	nt	-6
CCSc1nc2sc3c(c2c2[n+]1CC(CBr)O2)CCCC3 (stereo not drawn)	nt	-1%	3.0	nt	-3
CCN(CC)c1ccc(C(=O)OCC(=O)c2ccco2)cc1	-37	-7%	-2.6	6	7
CNc1cc(CSC)nc(SCc2ccc(Cl)cc2Cl)n1	0	2%	0.5	-6	3
Cc1cc(C)cc(N=C(NO)c2cccc([N+](=O)[O-])c2)c1	-1	2%	-0.8	-14	4
NCC(=O)NNC(=O)OCC1c2ccccc2-c2ccccc21	nt	nt	0.9	nt	-2
[O-]/C(=C(\C(=S)Nc1ccccc1F)[n+]1ccccc1)c1ccc(-c2ccccc2)cc1	nt	6%	2.5	1	-5
CC1N(C(=O)N(C)C)CCN1S(=O)(=O)c1ccccc1 (stereo not drawn)	nt	nt	-1.0	nt	-9
O=C(Nc1nnc(C23CC4CC(CC(C4)C2)C3)s1)c1ccc(N2C(=O)CCC2=O)cc1	-9	7%	-0.7	16	0
Cc1cc(NS(=O)(=O)c2ccc(NC(=O)C(c3ccccc3)c3ccccc3)cc2)no1	-23	-5%	7.7	12	-2
CCOC(=O)c1c(NC(=O)CCl)sc(CN(C)C)c1-c1ccccc1	nt	3%	50*	-32	90
CCOc1ccc(N(C)S(=O)(=O)c2ccc(C)c(C(=O)OCC(=O)c3c[nH]c4ccccc34)c2)cc1	nt	-4%	-2.3	-5	2
OCC1(Cc2ccccc2)CCN(Cc2cnn(-c3ccccc3F)c2)CC1	nt	4%	0.7	-5	-11
CCN1CCN(C(=O)NC(c2ccc(C)c(F)c2)C(Cl)Cl)CC1 (stereo not drawn)	nt	-9%	-2.4	6	-5
O=C1/C(=C/c2ccc(F)c(F)c2)CSc2sccc21	-8	12%	8.3	11	4
Cc1ccc(NC(=O)CN2C(=O)N/C(=C/c3cc(C)n(-c4ccc(C(=O)O)cc4)c3C)C2=O)cc1	nt	-1%	nt	16	nt
Cc1ccc(-c2cc(C(=O)N/N=C/C=C/c3ccccc3)n[nH]2)o1	-23	29%	0.1	13	81
CCOc1cc2c3c(c1)C(C)CC(C)(C)N3C(=O)C2=O (stereo not drawn)	-30	5%	-40	4	6
COc1cc(/C=N/n2c(-c3ccccc3)n[nH]c2=S)cc(OC)c1O	nt	1%	-3.1	nt	0
Cc1noc(C)c1S(=O)(=O)N1CCC(C(=O)N2CCN(c3ccccc3Cl)CC2)CC1	-22	2%	1.9	0	-5
Cc1ccn(-c2ccc(NC(=O)c3cccs3)cc2)n1	nt	nt	-1.4	nt	-2
CC(=O)c1ccc(N2CCN(C3CCC(C(C)(C)C)CC3)CC2)cc1 (stereo not drawn)	nt	nt	4.3	nt	9
CC1(C)CC(=O)C(C=NCCN2CCN(C3CC(=O)N(c4ccc(Cl)c(Cl)c4)C3=O)CC2)=C(O)C1 (stereo not drawn)	nt	-5%	0.0	4	-7
CCOC(=O)N1CCN(S(=O)(=O)c2c[nH]c(C(=O)OC)c2)CC1	nt	nt	-2.5	nt	0
Cc1ccc(C)c(-n2c(SCC(=O)N3CCC(C(=O)O)CC3)nnc2-c2cccc(Cl)c2)c1	nt	0%	3.5	0	1
CCN(CC)CCCNc1nc2cc(OC)c(OC)cc2c2nc(-c3ccccc3)nn12	3	9.3µM*	-2.4	-42	100
CCOc1ccc2c(c1)nc(SCC(=O)c1ccc(Br)s1)n2C	-40	1%	5.5	-13	-8
NS(=O)(=O)c1ccc(NC(=O)c2ccc(CSc3ccccc3)o2)cc1	nt	nt	-2.1	nt	2
NC(=O)COc1ccc(NC(=O)OCc2ccccc2)cc1	-26	-14%	-1.8	1	1
COCCn1c(SCC(=O)Nc2ccc(OC)c(S(N)(=O)=O)c2)nc2ccccc2c1=O	nt	nt	-1.4	nt	0
CCN1C(=O)N[C@@H](c2ccccc2)[C@H](C(C)=O)[C@H]1C	nt	0%	0.9	nt	-6
COC(=O)c1ccc(COC(=O)C(CCSC)NC(=O)COc2ccccc2)cc1 (stereo not drawn)	nt	nt	1.0	nt	-6
COc1ccc2c(c1OC)C(=O)OC2Nc1nc(-c2cc3cc(Br)ccc3oc2=O)cs1 (stereo not drawn)	nt	61%	-6.6	nt	?
CCn1c(C)nc2cc(C(=O)NNS(=O)(=O)c3ccccc3F)ccc21	-4	nt	0.3	3	4
COc1ccc2nc(SCC(=O)Nc3cc(C)on3)[nH]c2c1	-9	1%	-4.8	3	3
CCCCCN(C(=O)CCC(=O)OC(C)C(=O)c1ccccc1)c1c(N)n(CCCC)c(=O)[nH]c1=O (stereo not drawn)	nt	nt	-0.1	nt	-8
CCCCNC(=O)COC(=O)c1ccccc1F	nt	-9%	-2.7	nt	0
Cn1nnnc1SCC(=O)Nc1ccc(S(=O)(=O)N2CCOCC2)cc1	nt	-7%	nt	nt	-5
Cn1c(CSc2ncccn2)nnc1SCC(=O)N1CCCc2ccccc21	-35	nt	nt	12	5
O=C1CCN(Cc2ccccc2)CCN1[C@H](COc1ccccc1)c1ccccc1	nt	nt	2.6	nt	-7
OC(CN1CCN(c2ccccc2)CC1)c1ccc2c(c1)CCN2 (stereo not drawn)	-21	2%	-11	-8	0	Arbovirus inh repeat=-1
COc1ccc(S(C)(=O)=O)cc1S(C)(=O)=O	-32	-6%	-0.5	7	-7
CC1(C)CC2(CC(c3ccc(F)cc3)c3ccc(O)cc3O2)NC(=S)N1 (stereo not drawn)	nt	0%	7.5	nt	-6
O=C(Nc1cnc2ccccc2c1)c1ccco1	5	-2%	2.5	-7	-9
COc1ccccc1N=C1SCC(=O)N1Cc1ccco1	nt	5%	-1.7	nt	-5
CC(C)(C)Nc1nc(Cl)nc(NC(C)(C)C)n1	-29	9%	4.5	-8	?
CC(OC(=O)c1ccc2c(c1)C(=O)N(Cc1ccncc1)C2=O)C(=O)Nc1cccc(Cl)c1Cl (stereo not drawn)	-37	-5%	-5.0	5	2
CCN(CC(=O)Nc1c(F)cccc1F)C(=O)CNC(=O)c1ccc2c(c1)OCO2	nt	nt	0.2	nt	-8
Cc1csc2nc(O)c(C(=O)NCC3CCCO3)c(=O)n12 (stereo not drawn)	nt	nt	0.7	nt	-7
Following part:
SMILES	YopH inh	Mtb H37Rv	RecA intein inh	Arbovirus inh	Mtb bLac sens	others
Cc1ccc(-c2nnc(N3CCN(S(C)(=O)=O)CC3)c3ccccc23)cc1	7	8%	-2.5	0	-5
COc1cccc(OC)c1C(=O)NC(=S)NCc1ccco1	nt	-5%	-5.0	-1	-3
COc1ccccc1NC(=O)C(=O)NNC(=O)c1ccco1	-9	-13%	0.5	1	52
Cc1nc2ccccn2c1-c1csc(Nc2cccc(C(=O)O)c2)n1	nt	nt	-0.9	nt	0
O=C(OC1CCOC1=O)c1cc(Cl)ccc1[N+](=O)[O-] (stereo not drawn)	nt	nt	-4.6	nt	2

Source: PubChem BioAssay

A portion of the library; the hit share may differ from the screen's.
